# Bioassay records: PubChem BioAssay, ICCB-Longwood Screening Facility, Harvard Medical School
# BmaI1 – BmaI1 acyl-homoserine lactone synthase inhibition – biochemical, fluorescence intensity, with counterscreen (AID 720554). inhibition, %. BmaI1 enzyme assay, fluorescence intensity; active compounds read high; test concentration not given here; a few actives read low; strong numbers were not always called active. 12,000 tested, 0.4% active;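 active means both replicates within 2 robust z-scores of the inhibited control and a quiet counterscreen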;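 further: 0% = uninhibited enzyme and 100% = inhibited control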
# BmaI1 counterscreen – also measured in BmaI1; calls as there; inhibition, %; measured here: counterscreen; design of the counterscreen not given here;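 first of two replicates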
# * hit, by the source's call. This is a subset. The share of hits here may be higher or lower than overall.
SMILES,BmaI1,BmaI1 counterscreen
O=C(c1cccc(-n2cnnn2)c1)N(CCc1ccccc1)Cc1cccs1,14,-1
O=C(NCCOc1ccccc1F)C1CC(=O)N(Cc2ccccc2)C1 (configuration not stated),13,14
O=C(Cn1c(=O)c2c(ncn2C2CCCC2)n(Cc2ccccc2)c1=O)NCC1CCCO1 (configuration not stated),11,8
O=C(CCNS(=O)(=O)c1ccccc1F)N1CCN(c2ccccc2Cl)CC1,12,12
COc1cccc(NC(=O)CC(NC(C)=O)c2ccccc2)c1 (configuration not stated),-4,-5
Cc1ccc(C)c(SCC(=O)N(C)C)c1,2,0
NC(=O)NCCC1=CCCCC1,0,1
NC(=O)CCNC(=O)c1ccc(Cl)cc1,-1,6
COC(=O)c1c(C)[nH]c(C(=O)C(C)N(C)Cc2ccccc2OC)c1C (configuration not stated),-1,0
CC(C)(C)C1CCC(C(=O)OCC(=O)Nc2ccc3[nH]c(=O)[nH]c3c2)CC1 (configuration not stated),30,19

# One compound at a time, as listed above:
# COC(=O)c1c(C)[nH]c(C(=O)C(C)N(C)Cc2ccccc2OC)c1C (configuration not stated) is entered as BmaI1 = -1; BmaI1 counterscreen = 0
# O=C(CCNS(=O)(=O)c1ccccc1F)N1CCN(c2ccccc2Cl)CC1 is entered as BmaI1 = 12; BmaI1 counterscreen = 12

# Next entries:
SMILES,BmaI1,BmaI1 counterscreen
COC(=O)c1cccc(OCC(O)CNC2CCN(Cc3ccccc3)CC2)c1 (configuration not stated),29,14
CCc1cccc2c(C(=O)COC(=O)c3c(C)noc3C)c[nH]c12,8,4
CCCn1c(C)cc(C(=O)CN2C(=O)NC3(CCCCCC3)C2=O)c1C,4,-2
CCCN1CCN(C(=O)c2c(C)nn(Cc3ccc(C)cc3)c2Cl)CC1,10,0
COc1cccc(CNC(=O)Cc2cccc(OC)c2)c1,22,8
Cc1ccc(/C=C/C(=O)OCC(=O)c2cc(C)n(CC3COc4ccccc4O3)c2C)o1 (configuration not stated),23,14
CCOC(=O)c1sc2nc(CN3CCC(C)CC3)[nH]c(=O)c2c1C,4,-4
CC(C(=O)Nc1ccc2c(c1)OCO2)N(C)CC1COc2ccccc2O1 (configuration not stated),19,4
COC(=O)c1cc(OC)c(OC)cc1NCC(=O)Nc1ccc(C)cc1,15,22
Cc1cc(C)c(C(N)=O)c(=O)[nH]1,17,10
CN(C)S(=O)(=O)c1cccc(COC(=O)/C(=C/c2cccs2)c2cccs2)c1,12,9
CC(CCc1ccccc1)NC(=O)C(C)N1CCNC(=O)C1 (configuration not stated),4,4
O=C(O)c1cc(S(=O)(=O)NCCN2CCOCC2)ccc1O,-11,-7
O=C(NCc1cccc(CNC(=O)NCc2ccco2)c1)NCc1ccco1,17,0
CCCn1c(SCC(=O)N2CCC(C)Sc3ccccc32)n[nH]c1=O (configuration not stated),1,-4
CC(Nc1ccc(-n2cnnn2)cc1)C(=O)N1CCN(Cc2ccccc2)CC1 (configuration not stated),20,12
CN(C)C(=O)COC(=O)C1c2ccccc2Oc2ccccc21,6,6
Cc1c(/C=C2/N=C(c3ccccc3)OC2=O)cc(C#N)n1C,2,2
O=C1[C@H]2CCCC[C@H]2C(=O)N1CCCCN1CCN(c2nsc3ccccc23)CC1,8,14
Cc1cc(C(=O)COC(=O)c2ccc(NC(=O)CC#N)cc2)c(C)n1-c1ccc2c(c1)OCCO2,7,4
Cc1ccc(C)c(SC(C(=O)NC(N)=O)C(C)C)c1 (configuration not stated),3,-4
COc1ccc(CCn2c(SCc3cc(C)on3)nc3sc4c(c3c2=O)CCCC4)cc1OC,18,12
COc1ccc(/C=C2\SC(=O)N(CCNC(=O)c3nn(C)c(=O)c4ccccc34)C2=O)cc1,8,4
Cc1cc(C)nc(NS(=O)(=O)c2ccc(NC(=O)CN3C(=O)C4CC=CCC4C3=O)cc2)n1 (configuration not stated),18,14
Cc1ccc2nc(Cl)c(/C=N/NC(=O)c3cccnc3)c(=O)n2c1,-5,-18
CCOC(=O)C(C#N)C1C(=O)Nc2ccccc21 (configuration not stated),-83,-42
CC(C)n1ncc2c(C(=O)N(C)Cc3ccco3)cc(-c3ccccc3)nc21,10,0
Cc1ccc2nc(SC(C)C(=O)NCc3ccco3)[nH]c2c1 (configuration not stated),18,10
CCN(CC)C(=O)C(c1ccccc1)n1nnc(-c2ccc(Br)cc2)n1 (configuration not stated),4,2
CC1Cc2ccccc2N1C(=O)Cn1cnc2ccccc2c1=O (configuration not stated),4,-2

# By substructure, the compounds so far containing four or more nitrogen atoms.
SMILES,BmaI1,BmaI1 counterscreen
O=C(c1cccc(-n2cnnn2)c1)N(CCc1ccccc1)Cc1cccs1,14,-1
O=C(Cn1c(=O)c2c(ncn2C2CCCC2)n(Cc2ccccc2)c1=O)NCC1CCCO1 (configuration not stated),11,8
CCCN1CCN(C(=O)c2c(C)nn(Cc3ccc(C)cc3)c2Cl)CC1,10,0
O=C(NCc1cccc(CNC(=O)NCc2ccco2)c1)NCc1ccco1,17,0
CCCn1c(SCC(=O)N2CCC(C)Sc3ccccc32)n[nH]c1=O (configuration not stated),1,-4
CC(Nc1ccc(-n2cnnn2)cc1)C(=O)N1CCN(Cc2ccccc2)CC1 (configuration not stated),20,12
O=C1[C@H]2CCCC[C@H]2C(=O)N1CCCCN1CCN(c2nsc3ccccc23)CC1,8,14
COc1ccc(/C=C2\SC(=O)N(CCNC(=O)c3nn(C)c(=O)c4ccccc34)C2=O)cc1,8,4
Cc1cc(C)nc(NS(=O)(=O)c2ccc(NC(=O)CN3C(=O)C4CC=CCC4C3=O)cc2)n1 (configuration not stated),18,14
Cc1ccc2nc(Cl)c(/C=N/NC(=O)c3cccnc3)c(=O)n2c1,-5,-18
CC(C)n1ncc2c(C(=O)N(C)Cc3ccco3)cc(-c3ccccc3)nc21,10,0
CCN(CC)C(=O)C(c1ccccc1)n1nnc(-c2ccc(Br)cc2)n1 (configuration not stated),4,2

# Next section.
SMILES,BmaI1,BmaI1 counterscreen
Cc1occc1-c1nnc(SCCCC(=O)c2ccc(Br)cc2)n1C,30,10
CCCC1=NN2CCS(=O)(=O)N=C2S1,1,10
Cc1cc(-c2csc(NC(=O)/C=C/c3ccco3)n2)c(C)n1CC1CCCO1 (configuration not stated),8,-10
CSc1ncc(Cl)c(C(=O)C(C#N)c2nc3ccccc3c(=O)[nH]2)n1 (configuration not stated),8,-6
Cc1ccc(CNC(=O)C2=NN(c3ccccc3)C(=O)CC2)cc1,21,18
CCc1ccc2c(c1)SC1=NS(=O)(=O)CCN12,4,10
COC(=O)C1CCN(C(=O)COC(=O)CCc2nc3ccccc3c(=O)[nH]2)CC1,10,6
COc1ccc(C2=NN(C(=O)COn3nnc4ccccc43)C(c3ccco3)C2)cc1 (configuration not stated),2,4
CCc1onc(C)c1C(=O)Nc1ccc(N2CCOCC2)cc1,5,-7
CC(=O)N1CCN(C(=O)COC(=O)c2ccc(C(C)C)cc2)CC1,0,-2
O=c1c(Cl)c(N2CCOCC2)cnn1Cc1ccccc1,8,-2
O=C1CN(C(=O)CSc2cccc[n+]2[O-])c2ccccc2N1,8,6
CCOC(=O)/C=C1\SCC(=O)N1CCOC(=O)c1c(-c2ccccc2)noc1C,14,12
CCCCCC(=O)Nc1ccc(C(=O)CSc2nnc3n2CCCCC3)cc1,16,-2
C/C=C/C(=O)OCn1nnc2ccccc2c1=O,0,-2
Cc1ccc(-c2csc(NC(=O)COC(=O)C3CC(=O)N(Cc4ccco4)C3)n2)cc1 (configuration not stated),6,6
O=C(NCCC1=CCCCC1)c1ccc(F)c(S(=O)(=O)N2CCOCC2)c1,12,7
C[C@]12CCC(=O)C=C1CC[C@@H]1[C@@H]2[C@@H](O)C[C@@]2(C)[C@H]1CC[C@]2(O)C(=O)CO,2,17
CN(C)C(=O)CN1C(=O)c2ccccc2S1(=O)=O,2,-3
O=C(OC1CCCCC1=O)c1ccc(-c2cccc(C(F)(F)F)c2)o1 (configuration not stated),10,0
Cc1cc(C)n(/N=C2/C(=O)Nc3ccc(Br)cc32)c(=O)c1C#N,0,-7
O=C1/C(=C\c2ccc(OC(F)F)cc2OC(F)F)Oc2cc(O)ccc21,24,14
COc1ccccc1C(=O)NCC(=O)Nc1ccc(-c2nnc3n2CCCCC3)cc1,26,9
O=C(CCCSc1nnc(-c2cccs2)n1CC1CCCO1)c1ccccc1 (configuration not stated),14,7
CC1=C(C(=O)N2CCOCC2)C(c2ccc3c(c2)OCCO3)NC(=S)N1 (configuration not stated),16,7
CCSc1nnc(SCC(=O)c2ccc3[nH]c(=O)[nH]c3c2)s1,49,12
C=CCn1c(SCC(=O)c2ccccc2)nc2ccccc21,12,13
Cn1nc(C(=O)N2CCCCCC2)c2ccccc2c1=O,14,8
Cc1nc2ccccc2c(C)c1CC(=O)N1CCN(CCOc2ccccc2)CC1,18,8
Cn1cccc1/C=C/C(=O)OCc1ccccc1C#N,12,8
Oc1ccccc1N1CCN(c2nc(-c3cccs3)nc3ccccc23)CC1,46,12
Clc1ccc(Cl)c(Nc2nc3cc(Cl)ccc3o2)c1,19,7
CCc1cc2c(=O)c(-c3nncn3-c3ccccc3)coc2cc1OCC(=O)O,36,16
CC(C)N(C(=O)CSc1nnc(Cc2cccc3ccccc23)n1N)C(C)C,4,2
O=C(CNCCc1ccc(Cl)cc1Cl)NCc1ccco1,20,10
c1ccc(-n2c(SCC3CCCO3)nnc2-c2cccs2)cc1 (configuration not stated),14,16
COC(=O)c1ccc(CSc2nc(-c3ccccc3)cs2)o1,-5,-11
Cc1ccc(OCC(=O)Nn2cnc3ccccc32)cc1,6,2
COc1ccc2c(CC(=O)NC3CCCCCC3)coc2c1,8,6
CC(C#N)(NC(=O)CSc1nnc(-c2ccc(Br)cc2)n1C1CCCCC1)C1CC1 (configuration not stated),14,4
Cc1csc2nc(CSc3nnc(C(C)Oc4ccccc4F)o3)cc(=O)n12 (configuration not stated),9,0
CCc1ccc(-c2nc(SCC(=O)NC(C)(C#N)C(C)C)n[nH]2)cc1 (configuration not stated),8,8
Cn1c(N)c(C(=O)CN2CCc3ccccc3C2)c(=O)n(C)c1=O,-4,0
COc1ccc2c(CC(=O)OCc3cc(Cl)c4c(c3)OCO4)coc2c1,8,6
CCOC(=O)C1CCN(C(=O)COC(=O)c2ccc(-n3cnnn3)cc2)CC1,12,0
Cc1csc(=O)n1CCC(=O)OCc1cc(=O)n2cc(Br)ccc2n1,-10,-8
CCOC(=O)N1CCN(C(=O)CSC2=C(C#N)C(C)(C)C(C#N)C(=O)N2)CC1 (configuration not stated),11,-4
COc1ccccc1C(=O)NC(=O)CSc1nncn1C(C)C,-4,-4
Cc1nn(-c2ccccc2)c2c1CC1(C(=O)c3ccccc3C1=O)C1CCCN21 (configuration not stated),4,2
CN(C(=O)C1CCCCN1S(=O)(=O)c1ccccc1)c1ccccc1 (configuration not stated),20,7

# Further records:
SMILES,BmaI1,BmaI1 counterscreen
CC(C)Cc1ccc(C(C)NC(C)CC(N)=O)cc1 (configuration not stated),3,0
COc1ccc(-c2cc3n(n2)CCc2nc4ccccc4n2-3)cc1,6,12
Fc1ccc(N=Cc2cccnc2)cc1F,-40,-22
CC1CCCC(NC(=O)c2ccccc2)C1C (configuration not stated),7,0
CN(C)C(Cc1cccc(S(=O)(=O)N2CCOCC2)c1)C(=O)c1ccccc1 (configuration not stated),3,-2
Cc1cc(C(=O)Cn2cnc3sccc3c2=O)c(C)n1CCc1ccc(Cl)cc1,0,9
CN(C)S(=O)(=O)c1cccc(CSc2nnc(C(F)(F)F)n2C)c1,14,11
O=C(Nc1cccnc1)c1cccc(S(=O)(=O)N2CCc3ccccc32)c1,18,13
CC(Oc1ccc(-c2ccc(C#N)cc2)cc1)C(N)=O (configuration not stated),10,10
COc1ccc(CNC(=O)C(C)OC(=O)c2ccccc2)cc1 (configuration not stated),3,3
CC1CC(C)CN(C(=O)Cn2c(=O)oc3ccccc32)C1 (configuration not stated),6,4
Cc1nnc(SCC(=O)N(C)C2CCS(=O)(=O)C2)n1Cc1ccccc1 (configuration not stated),2,-6
CSCc1ccc(C(=O)NCc2ccccc2)cc1,4,6
O=C(CN(Cc1ccco1)C(=O)Cc1c(F)cccc1Cl)Nc1ccccc1Br,28,16
COc1ccccc1OCCC(=O)NC1CCCCC1C (configuration not stated),26,-5
CC(C)CN(C(=O)c1ccc(Cl)cc1)c1c(N)n(CC(C)C)c(=O)[nH]c1=O,6,2
O=C1c2ccccc2C(=O)N1CCSc1ncccn1,17,14
Cc1cc(-n2c(C)cc(C(=O)Cn3cc(C(F)(F)F)cc(Cl)c3=O)c2C)no1,0,-3
Cc1cc(O)cc(O)c1C(=O)Cc1cnn(-c2ccccc2)c1,-30,-24
COc1cc(-c2ccc(=O)[nH]n2)ccc1OC(F)F,7,16
N#CC1(NC(=O)COC(=O)c2ccc(-n3cccc3)cc2)CCCC1,8,4
CCN(CC)S(=O)(=O)c1ccc2c(c1)nc(CCC(=O)OCC(N)=O)n2C,8,0
CCN(CC)CC(=O)Nc1c(C)cccc1C,0,2
CCOC(=O)c1cc(C)n(CC(=O)O)c1C,-5,-8
CCCn1c(=O)n(C)c(=O)c2c(SCC(=O)O)nc(CC(C)C)nc21,49,18
CC(=O)NCCC(=O)Nc1nc(SCc2ccc(Cl)cc2)n[nH]1,-5,2
CN(C)S(=O)(=O)c1ccc(N2CCCCC2)c(C(=O)Nc2ccc3c(c2)OCO3)c1,20,10
Cc1cc(CNCc2ccc(CN(C)C)cc2)c(C)n1CC(C)C,20,-11
CC12CCC(=O)N1C(C(=O)OCc1cc(=O)n3cc(Br)ccc3n1)CS2 (configuration not stated),18,7
C=CCN(CC=C)C(=O)CSc1nnc2c3ccccc3n(CC)c2n1,6,-4
O=C(NCc1ccccc1)c1cc(=O)[nH]c(=O)[nH]1,4,0
CC1(C)C(=O)Nc2ccccc2N1C(=O)COc1ccc2ccc(=O)oc2c1,18,8
